Biofilm kill mix – mixture kills Candida albicans biofilm cells. C. albicans biofilm persisters + clotrimazole, fluorescence viability; primary screen in compound mixtures of four per well. inhibition, % at 7.6 µM. actives 0.02% (n = 120,000);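 active = inhibition above 30.3% in the primary screen of four-compound pools, then above 30% when the compound was retested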;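 note: compounds exposed to preformed 24 h biofilms for 48 h; the number belongs to the whole pool; some results filed as inactive read as strong as hits; inactives centre near 12; 0% = biofilm with clotrimazole alone and 100% = kill control; retested singly at about 60 µM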
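Test system: C. albicans biofilms. Buffer or medium: RPMI/MOPS medium, pH 7.0. Timing: 48 h compound exposure at 37 °C. Technique: Alamar Blue fluorescence. Evaluation: percent inhibition of biofilm viability.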
An asterisk follows results filed as active.

The first 15 compounds, ahead of the listing:
Compound	Biofilm kill mix
CCOC(=O)C1(CCOc2ccccc2)CCN(Cc2ccc(-n3cccn3)cc2)CC1	15
CCOc1ccccc1-n1nnnc1SCC(=O)O	19
Cc1ccccc1C(=O)c1cccn1CC(=O)NCCC1=CCCCC1	2
CN1CCN(/N=C/c2nc(-c3ccccc3Cl)n3ccccc23)CC1	18
Cc1ccnc(NC(=O)c2ccc3c(c2)C(=O)N(CC2CCCO2)C3=O)c1 (stereo unspecified)	29
CCN(CC)S(=O)(=O)c1ccc(-c2nnc(SCC(=O)N3c4ccccc4CC3C)n2CC)cc1 (stereo unspecified)	3
Cc1ccc(NC2=C/C(=N/S(=O)(=O)c3cccs3)c3ccccc3C2=O)cc1C	19
CCOc1ccc(Nc2c3ccccc3nc3ccccc23)cc1	6
Cc1cc(C)nc(N=Nc2c(O)n(Cc3ccc(Cl)cc3)c3ccccc23)n1	9
C/C(=N/Nc1nc(-c2ccccc2F)nc2ccccc12)c1ccccc1O	21
Cc1cc(C(=O)COC(=O)c2ccc(Br)o2)c(C)n1Cc1ccco1	11
Cc1cccc(-c2nc3cc(NC(=O)C4CCCO4)ccc3o2)c1 (stereo unspecified)	22
COC(=O)Cn1c(=O)c(=O)n(CC(=O)OC)c2ccccc21	11
C[n+]1nc(Nc2cccc3ccccc23)sc1-c1ccc(C(=O)O)cc1	10
O=C(CCNc1n[nH]c(=O)[nH]c1=O)N/N=C/c1ccc(C(F)(F)F)cc1	15

Main list, repeating the preview:
Compound	Biofilm kill mix
CCOC(=O)C1(CCOc2ccccc2)CCN(Cc2ccc(-n3cccn3)cc2)CC1	15
CCOc1ccccc1-n1nnnc1SCC(=O)O	19
Cc1ccccc1C(=O)c1cccn1CC(=O)NCCC1=CCCCC1	2
CN1CCN(/N=C/c2nc(-c3ccccc3Cl)n3ccccc23)CC1	18
Cc1ccnc(NC(=O)c2ccc3c(c2)C(=O)N(CC2CCCO2)C3=O)c1 (stereo unspecified)	29
CCN(CC)S(=O)(=O)c1ccc(-c2nnc(SCC(=O)N3c4ccccc4CC3C)n2CC)cc1 (stereo unspecified)	3
Cc1ccc(NC2=C/C(=N/S(=O)(=O)c3cccs3)c3ccccc3C2=O)cc1C	19
CCOc1ccc(Nc2c3ccccc3nc3ccccc23)cc1	6
Cc1cc(C)nc(N=Nc2c(O)n(Cc3ccc(Cl)cc3)c3ccccc23)n1	9
C/C(=N/Nc1nc(-c2ccccc2F)nc2ccccc12)c1ccccc1O	21
Cc1cc(C(=O)COC(=O)c2ccc(Br)o2)c(C)n1Cc1ccco1	11
Cc1cccc(-c2nc3cc(NC(=O)C4CCCO4)ccc3o2)c1 (stereo unspecified)	22
COC(=O)Cn1c(=O)c(=O)n(CC(=O)OC)c2ccccc21	11
C[n+]1nc(Nc2cccc3ccccc23)sc1-c1ccc(C(=O)O)cc1	10
O=C(CCNc1n[nH]c(=O)[nH]c1=O)N/N=C/c1ccc(C(F)(F)F)cc1	15
O=S(=O)(c1ccc(Cl)nc1)N1CCc2ccccc21	13
CC(C)CC(=O)NCCCCc1ccccc1	21
COc1cccc(NC(=O)CN(C)CC(=O)Nc2ccc(Br)cc2)c1	18
O=[N+]([O-])c1ccc(N2CCSCC2)cc1	-7
O=C(O)CCCCOn1ccnc1	3
COc1ccccc1C1=NOC(COC(=O)c2ccc(Br)cc2)C1 (stereo unspecified)	19
COC(=O)c1ccc(COc2cc([N+](=O)[O-])cc3cccnc23)cc1	28
CCCCN(C)CC(O)Cn1cc(/C=C/C(=O)c2cccs2)c2ccccc21 (stereo unspecified)	8
O=C1c2ccccc2C(=O)C1c1ccccc1	12
CCOc1ccc(/C=N/NC(=O)C2(O)c3ccccc3-c3ccccc32)cc1	19
Cc1ccc(CNC(=O)c2ccc3c(=O)c(O)c(-c4ccc(C)cc4)[nH]c3c2)cc1	16
O=C(OCC(=O)N1CCCCC1)c1cc(NS(=O)(=O)c2ccc(Cl)c([N+](=O)[O-])c2)ccc1O	19
CCN1CCN(CCCOc2ccc(Cl)cc2Br)CC1	12
O=C(Nc1ccc(Cl)cc1)C1CC(=O)n2c(nc3ccccc32)N1 (stereo unspecified)	15
COc1ccc(C(CCNCc2ccc(OC(C)C)cc2)C(C)C)cc1 (stereo unspecified)	13
COc1ccc(C2=NN(S(=O)(=O)c3ccccc3)C(c3ccccc3)C2)cc1 (stereo unspecified)	26
CC(Sc1ccsc1[N+](=O)[O-])C(=O)N1CCN(c2ccccn2)CC1 (stereo unspecified)	2
CCOc1ccc(-n2cc(-c3ccccc3)c3c(SC(C)C(=O)OC)ncnc32)cc1 (stereo unspecified)	15
COc1ccc(CCNS(=O)(=O)c2cccc3cccnc23)cc1OC	26
O=C(COc1ccccc1)N1CCN=C1SCc1ccccc1	15
O=C(COC(=O)C12CC3CC(CC(Br)(C3)C1)C2)N1CCOCC1	0
CCN(CC)S(=O)(=O)c1ccc(C(=O)/C=C/c2ccc(-c3ccc([N+](=O)[O-])cc3)o2)cc1	23
O=C(COC(=O)CCc1ccccc1)NC12CC3CC(CC(C3)C1)C2	11
O=C(N/N=C\C=C\c1ccco1)c1cncc(Br)c1	23
N/C(=N\N=C\c1ccco1)SC1CC(=O)N(c2ccccc2)C1=O (stereo unspecified)	2
CCOc1ccc(N2C(=O)CC(SCc3nc4ccccc4[nH]3)C2=O)cc1 (stereo unspecified)	-4
CCn1ccc(C(=O)Nc2cccc(Cl)c2)n1	19
Cc1nn(-c2ccccc2)c(Cl)c1/C=N/NC(=O)CNc1n[nH]c(=O)[nH]c1=O	11
Nc1cc(=O)[nH]c(=O)n1-c1cccc(F)c1	19
COCc1cc(=O)[nH]c(/N=C(\N)Nc2c(F)cccc2F)n1	13
COC(=O)c1ccc2c(=O)n(Cc3ccc(C(=O)NC4CCCC4)cc3)c(=S)[nH]c2c1	26
CCOc1ccccc1NC(=S)N1CCC(c2nc3ccccc3o2)CC1	12
NS(=O)(=O)c1ccc(N/C=C\C(=O)c2ccc(F)cc2)cc1	1
CCc1ccc(NC(=O)C(=O)NNC(=O)COc2cccc(OC)c2)cc1	20
N/C(=N\OC(=O)c1cccc(Br)c1)c1ccncc1	16

The list goes on:
Compound	Biofilm kill mix
O=C(COC(=O)c1ccc(S(=O)(=O)NCc2ccco2)cc1)c1ccccc1	23
CCC(=O)OCC(=O)Nc1ncc(C(F)(F)F)cc1Cl	10
CS(=O)(=O)c1ccc(Cl)c(NC(=O)CCc2ccccc2)c1	8
COc1ccc(C(C(=O)NCCC(C)C)N(CCN2CCOCC2)C(=O)Cn2nnc3ccccc32)c(OC)c1 (stereo unspecified)	19
Cc1cc(C)n(-c2nc3ccccc3nc2N2CCOCC2)n1	3
CC(C)(CO)NCc1cccc(OCc2ccc(Cl)cc2)c1	13
COC(=O)CCCCCN1C(=O)/C(=C\c2ccncc2)SC1=S	18
O=C(/C=C/c1ccccc1Cl)N1CCN(c2ncccn2)CC1	-10
NC(=S)N1OC[C@@H]2COc3ccc4ccccc4c3[C@@H]21	9
Cc1onc(C(=O)NN)c1C(=O)N1CCN(C(c2ccccc2)c2ccccc2)CC1	-8
Cc1sc2nc(CSc3n[nH]c(N)n3)[nH]c(=O)c2c1C	6
CC(CO)NCC12CC3CC(CC(C3)C1)C2 (stereo unspecified)	12
Cc1cc(C(=O)OCC(=O)N2CC(=O)Nc3ccccc32)c(C)n1-c1ccc(F)cc1	14
CCOC(=O)N1CCN(Cc2nc3ccc([N+](=O)[O-])cc3c(=O)n2-c2cccc(OC)c2)CC1	6
Nc1nnc(CC(=O)N/N=C/c2ccc([N+](=O)[O-])cc2)s1	6
Cc1cccc(C)c1NC(=S)N/N=C/c1ccc(C(=O)O)cc1	19
CCn1c(C)cc(/C=C2/NC(=O)N(Cc3ccccc3F)C2=O)c1C	14
Cc1nn(-c2ccccc2)c(Cl)c1C(=O)N1CCN(C)CC1	14
CC1CCCC(C)N1C(=S)SCC(=O)O (stereo unspecified)	12
COc1ccc(/C=N/NC(=O)CC(=O)NCc2cccnc2)c(OC)c1	9
C#CCOCCOCCOCCNc1nc(N2CCN(C(=O)[C@H]([C@@H](C)CC)n3cc([C@@H](N)CO)nn3)CC2)nc(N2CCN(C(=O)[C@H](CCCCN)n3cc([C@@H](N)CC(C)C)nn3)CC2)n1	19
Cc1ccc(OCC(=O)N2CCN(C(=O)c3ccco3)CC2)cc1	17
CCN(CC)S(=O)(=O)c1ccc(N2CCCC2)c(NS(=O)(=O)c2ccc(OC)cc2)c1	5
O=C(NCc1ccco1)c1ccccc1-c1nc(-c2ccc(F)cc2)no1	5
O=C(CCC(=O)N(CC(=O)NC1CCCC1)C1CCCCC1)Nc1ccccn1	20
CC(C)Oc1ccc(C(=O)Nc2cccc3cccnc23)cc1	7
CCNC(=O)Cn1c(=O)c(=O)n(Cc2ccccc2)c2ccc(Cl)cc21	18
O=C(C1=C[C@@H](c2ccc3c(c2)OCO3)C[C@@H](OCCCCO)O1)N1CCN(Cc2ccc3c(c2)OCO3)CC1	19
CCNC(=S)NNC(=O)c1ccc(OC)cc1	8
O=[N+]([O-])c1ccc2c(c1)C(O)n1ncnc1S2 (stereo unspecified)	11
Cc1c(NC(=O)CN2C(=O)NC3(CCCCC3)C2=O)c(=O)n(-c2ccccc2)n1C	2
NC(=S)Nc1nccc(-c2cccs2)n1	11
Cc1ccc(/C=N/NC(=O)Nc2ccccc2)o1	5
COCCCNC(=S)N/N=C/c1ccc(OC)c(Br)c1	10
CC(/C=C/c1ccccc1F)=N\NC(=O)c1cccc(F)c1	11
COc1ccc(Cc2nc(N)nc(N)n2)cc1	17
CC(C)CNS(=O)(=O)c1ccc(CCC(=O)NC2CCCC2)cc1	12
O=C1N(Cc2cccc(Cl)c2)C[C@@H]2C[C@@H](c3ccccn3)N3CCC[C@@]123	25
O=C(NNC(=O)c1cc(C(F)(F)F)cc(C(F)(F)F)c1)c1ccc(Cl)cc1	15
C=CCn1c(SCC(=O)Nc2nc3ccccc3s2)nc(O)c(CC)c1=O	20
CCCCCCCCCCCCC(=O)CCCCC(=O)O	18
CC(=C/c1ccccc1)/C=N/NC(=O)c1ccccn1	24
O=C(COc1ccc(Br)cc1Cl)Nn1cnnc1	16
Cn1cc(CN2CCC(O)CC2)c(-c2ccc(Oc3ccccc3)cc2)n1	14
CCCCN(CC)Cc1ccc(CNC(=O)Nc2ccc(Cl)cc2)o1	13
Cc1cc(C)n(C(=O)/C=C/c2cccs2)n1	7
Cc1ccc(NCc2n[nH]c(=S)n2Cc2ccccc2)cc1Cl	10
CCn1c(COc2ccccc2Cl)nnc1SCC(=O)Nc1ncccc1C	15
C=CCNC(=S)NNc1nc2c(c(=O)[nH]1)C1(CCCC1)Cc1ccccc1-2	15
O=C(Nc1ccc(C(=O)NN2C(=O)c3ccccc3C2=O)cc1)c1ccccc1	7

(continued)
Compound	Biofilm kill mix
CCCC(=O)Nc1nnc(SCC(=O)Nc2ccc3c(c2)OCO3)s1	21
COc1ccc(C(=O)NC(=S)Nc2ccc(S(N)(=O)=O)cc2)cc1	16
CCCCN(C)C1CCN(C(=S)Nc2ccc(OCC)cc2)CC1	18
CC(C)C(Nc1ccc(C(F)(F)F)cc1[N+](=O)[O-])C(=O)O (stereo unspecified)	11
COC(=O)c1c(C)oc(C)c1S(=O)(=O)NCc1ccco1	4
CCCOC(=O)C1=C(C)OC23OC(N)=C(C#N)C12C(=O)c1ccccc13 (stereo unspecified)	12
O=C(NC1CCCC1)C(c1ccncc1)N(Cc1ccccc1)C(=O)c1ccc(-c2ccccc2)[nH]1 (stereo unspecified)	14
COc1ccc(C(=O)COc2ccccc2C(=O)Nc2ccccc2)cc1	10
Cc1cccc(C)c1OCc1nc2ccccc2c(=O)n1/N=C/c1ccc(OCC(=O)O)cc1	7
COc1cc(/C=C2/C(=N)N3C(c4ccccc4)=CSC3=NC2=O)ccc1OCC(=O)O	6
CC(=O)NN=C1CCC(c2ccccc2)CC1 (stereo unspecified)	8
O=C(COc1ncnc2ccccc12)Nc1cc([N+](=O)[O-])ccc1Cl	12
Brc1ccc(-c2csc(/N=C/N3CCCC3)n2)cc1	21
Nc1nc(N)c(N=Nc2ccc(S(N)(=O)=O)cc2)c(=O)[nH]1	11
CCc1ccc(N(C2C=CS(=O)(=O)C2)S(=O)(=O)c2ccc(C)cc2)cc1 (stereo unspecified)	16
COc1cc(OC)cc(C(=O)NC2CCN(Cc3nnnn3Cc3ccc(F)cc3)CC2)c1	26
Cc1ccc2c(c1)CCCN2C(=O)NC1CCCCC1	11
CNC(C)c1ccc(S(N)(=O)=O)cc1 (stereo unspecified)	18
Cc1cc(C)nc(N/N=C/c2cc(C)n(CC(F)(F)F)c2C)n1	3
O=c1[nH]c2ccc(NS(=O)(=O)c3ccc([N+](=O)[O-])cc3)cc2[nH]1	16
COc1ccc(CCNC(=O)/C(=C/c2cccnc2)NC(=O)c2ccccc2)cc1	15
Cc1ccccc1Nc1c(-c2ccccc2)nc2ncccn12	9
CC(=O)C1=C(C)NC(=O)CC1c1ccc(F)cc1 (stereo unspecified)	17
Cc1cc2ccccc2nc1Br	11
CCN(CC)c1ccc(/C=N/NC(=O)c2ccc3nc[nH]c3c2)c(O)c1	24
COc1ccc(NCC(=O)N/N=C/C=C/c2ccccc2[N+](=O)[O-])cc1	27
CCOC(=O)Cn1nc(C(F)F)c(Br)c1C	14

Source: PubChem

Not all compounds are listed (hit frequency here may not be typical).
